# Screening results deposited in PubChem BioAssay by several laboratories.
# MT1-MMP act inh = blockers of MT1-MMP proenzyme processing, primary screen, HT1080 RFP-PRO-GFP cells, GFP/RFP fluorescence. GFP/RFP ratio fluorescence, overnight; percent of plate control window, DMSO zero. GFP/RFP ratio change, % at 20 µM. 360,000 compounds, 0.061% hits. AID 651647, 2012;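 active means GFP/RFP ratio change of at least 30% with cell ATP level not reduced by more than half and red fluorescence within 50% of control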; further: strong numbers were not always called active
#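 Test system: HT1080 cells expressing an RFP-PRO-GFP fluorescent reporter construct / Compound dosing: single-point 20 µM compound, 1% DMSO / Schedule: cells overnight before dosing, compound overnight, 37 °C, 5% CO2 / Evaluation: GFP/RFP fluorescence ratio / Control set: DMSO and RFP-L50D-GFP cell wells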
# PABP polyA inh = PABP poly(A) RNA binding inhibitors, primary screen, biochemical, fluorescence polarization, uHTS | 290,000 compounds, 1% hits | Polyadenylate-binding protein 1 (Homo sapiens), P11940 | inhibition, % at 35 µM;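 active means 50% or more with normal probe brightness, or confirmed in later tests; inconclusive means above 50% with abnormal brightness, or retests that disagree; inactive means below 50% or failed in later tests; about a fifth of its hits are not listed in these tables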;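 further: calls also rest on retests at 20 µM and on dose response follow-up; controls were probe without protein and protein plus probe with vehicle; some compounds called inactive have numbers as strong as hits; many hits fall short of the cut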
# Target sequence (P11940 whole entry, looked up): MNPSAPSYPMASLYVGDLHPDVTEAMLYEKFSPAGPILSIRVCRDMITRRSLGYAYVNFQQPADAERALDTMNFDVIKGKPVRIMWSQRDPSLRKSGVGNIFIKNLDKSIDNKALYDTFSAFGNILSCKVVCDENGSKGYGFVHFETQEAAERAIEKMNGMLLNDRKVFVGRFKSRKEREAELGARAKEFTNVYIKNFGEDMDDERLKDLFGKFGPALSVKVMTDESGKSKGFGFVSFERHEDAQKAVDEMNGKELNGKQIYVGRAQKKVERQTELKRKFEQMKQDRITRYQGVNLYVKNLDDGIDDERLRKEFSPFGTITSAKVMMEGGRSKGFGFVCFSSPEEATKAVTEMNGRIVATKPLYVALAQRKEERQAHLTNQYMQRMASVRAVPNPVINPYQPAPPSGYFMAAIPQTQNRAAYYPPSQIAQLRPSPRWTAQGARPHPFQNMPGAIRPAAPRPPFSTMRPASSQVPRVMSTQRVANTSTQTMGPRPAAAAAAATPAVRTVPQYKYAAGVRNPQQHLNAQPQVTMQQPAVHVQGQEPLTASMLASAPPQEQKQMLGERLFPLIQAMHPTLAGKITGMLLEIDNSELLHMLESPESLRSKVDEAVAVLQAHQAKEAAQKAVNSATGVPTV
# Yeast UUG start = modulators of yeast start codon fidelity, primary screen, whole organism, S. cerevisiae, single point, plate reader | activity score, % at 18.7 µM | 350,000 compounds, 0.13% hits | AID 602363, 2012 | S. cerevisiae UUG-firefly luciferase reporter, luminescence/redox ratio;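 active means replicate mean at a twofold rise or more, about +100% in these data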;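 further: firefly luciferase made from a UUG start codon reports start codon fidelity; reporter light over untreated wells divided by growth signal over untreated wells; some hits fall short of that in this replicate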
# Env fusion inh = inhibitors of HIV-1 Env-driven cell-cell fusion, primary screen, HeLa-JRFL effector, CEM21 target cells, luciferase | inhibition, % at 12.3 µM | 360,000 compounds, 1.1% hits | AID 651610, 2012;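 active means mean replicate inhibition score of at least 50 and every replicate individually at or above 50; inconclusive means only one of the two criteria met; inactive means mean below 50 and not all replicates reaching 50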;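 further: 0% = plate neutral controls and 100% = maraviroc near 300 nM; one replicate is shown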
# Rce1 inhib = yeast Rce1p protease inhibitors, primary screen, biochemical, fluorescence, cell-free homogeneous; calls only; 290,000 compounds, 0.27% hits; CAAX prenyl protease 2 (Saccharomyces cerevisiae (strain ATCC 204508 / S288c)), Q03530; yeast membranes, quenched prenylated peptide cleavage fluorescence;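 active means fall in fluorescence gain of 50% or more versus controls, with final raw signal at or below 3038400; inconclusive means same 50% fall but final raw signal above 3038400; inactive means fall in fluorescence gain under 50%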;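 further: plate controls were neutral control wells for no effect and wells lacking membranes for full effect; tested at 10 µM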
# Target sequence (Q03530 whole entry, looked up): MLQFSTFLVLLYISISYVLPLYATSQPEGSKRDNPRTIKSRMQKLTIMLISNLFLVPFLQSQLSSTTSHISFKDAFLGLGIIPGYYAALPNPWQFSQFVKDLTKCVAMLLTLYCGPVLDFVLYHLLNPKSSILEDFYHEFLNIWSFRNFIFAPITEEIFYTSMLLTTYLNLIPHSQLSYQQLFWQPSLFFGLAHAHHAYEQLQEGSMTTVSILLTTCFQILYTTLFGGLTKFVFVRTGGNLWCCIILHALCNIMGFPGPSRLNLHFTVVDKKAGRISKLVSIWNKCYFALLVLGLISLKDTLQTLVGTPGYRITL
# eIF4H FP inh = human eIF4H binding inhibitors, primary screen, translation initiation inhibitor project, biochemical, uHTS, fluorescence polarization; Eukaryotic translation initiation factor 4H (Homo sapiens), Q15056; inhibition, % at 35 µM; 290,000 compounds, 0.94% hits; eIF4H fluorescence polarization binding assay; AID 2012, 2009;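 active means 50% or more with normal probe brightness, or confirmed in later tests; inconclusive means above 50% with abnormal brightness, or retests that disagree; inactive means below 50% or failed in later tests; about a fifth of its hits are not listed in these tables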;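 further: calls also rest on retests at 20 µM and on dose response follow-up; 0% = protein and probe with vehicle and 100% = probe without protein; strong numbers were not always called active; many hits fall short of the cut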
# CSC inhib = cancer stem cell viability inhibitors, primary screen, luminescence; cancer stem cell-like cells viability; inhibition, % at 7.5 µM; 300,000 compounds, 1.1% hits;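 active means mean at 75% or more and at least half the replicates too; inconclusive means mean and replicates disagree; tested in HMLE shEcad cells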;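 further: 0% = median of negative and 100% = median of positive control wells; the first replicate is given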
# eIF4H FP inh retest = recorded beside eIF4H FP inh, whose call it bears; inhibition, %; compound at 20 µM; confirmation average;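 mean of two retest wells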
# PABP polyA inh retest = further read-out of PABP polyA inh, marked with its call; inhibition, %; compound at 20 µM; confirmation repeats;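 mean of two retest wells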
# MT1-MMP act inh RFP = also measured in MT1-MMP act inh; calls as there; RFP signal change, %; measured here: RFP expression control read;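 0 = vehicle wells; hits needed this value within 50% of zero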
# An asterisk follows results filed as active; i = inactive; ? = inconclusive; . = no result given; & = joins results of further samples.
SMILES,MT1-MMP act inh,MT1-MMP act inh RFP,PABP polyA inh,Yeast UUG start,Env fusion inh,Rce1 inhib,eIF4H FP inh,CSC inhib,others
O=C(NCc1cccc(C(F)(F)F)c1)c1ccc2sc(COCCO)nc2c1,8,-2,.,-17,-7,.,.,.,
CCn1c(CNc2ccc(F)cc2)nnc1SCC(=O)N1CCCc2ccccc21,-8,-5,15,-17,1,i,1,6,
CCOc1cc(N2CCOCC2)c(OCC)cc1NC(=O)c1cc(C)cc(C)c1,2,-8,12,-18,29,i,-5,-8,
O=C(CCCn1ncn2c(cc3occc32)c1=O)NCc1ccccc1F,0,2,2,0,-4,i,1,-9,
COCc1ccc(CN2CCC(C(=O)Nc3cccc(-c4cccc(Cl)c4)c3)CC2)o1,3,-11,-7,-2,21,.,-5,0,
COc1ccc(CC(=O)NCc2ccc3c(c2)cc(C)n3C)cc1OC,29,30,-6,.,20,i,?,-1,
C[C@H](CO)N1C[C@H](C)[C@@H](CN(C)C(=O)Nc2ccccc2)Oc2c(NC(=O)C3CCCCC3)cccc2C1=O,0,1,.,-1&1,-1,.,.,0,
Cn1c(=O)[nH]c(=O)c2c1nc(NC1CCCCC1)n2Cc1ccccc1,-5,1,4,1,.,i,-2,-11,
O=C(CSCc1cnn(-c2ccccc2)c1-n1cccc1)NCc1cccnc1,4,1,5,-5,15,i,-1,9,
COc1cccc(C(=O)NNC(=S)NC2CCCCC2)c1,-1,-1,-4,-48,.,i,0,-11,
COc1ccc(CCSc2nnc(C3CCCCC3)n2N)cc1,5,1,-13,-21,.,i,-16,-9,
Cc1cccc(Nc2nnc(SCC(=O)NCC3CCCO3)s2)c1 (centres undefined),1,-1,.,-4,1,.,.,-7,
Cc1c(Br)c([N+](=O)[O-])nn1C(C)C(=O)NCc1cccs1 (centres undefined),0,-2,-5,-7,-28,i,5,0,
COc1cc(C)c(S(=O)(=O)n2c([N+](=O)[O-])cnc2C)cc1C,-3,4,8,-3,5,i,3,-9,
CCOCCn1c(CN2CCN(CCO)CC2)nc2c1c(=O)n(C)c(=O)n2C,-4,3,-5,-6,.,i,3,-3,
COc1cccc(CNC(=O)COc2cc(O)c3c(c2)OC(C)(C)CC3=O)c1,0,1,6,-15,.,i,38,-5,
CCc1nnc(NC(=O)CSc2nnc(-c3cccnc3)n2CCc2ccccc2)s1,0,2,-2,-21,-2,i,3,11,
C[N+]1(CN2C(=O)C3C4C=CC(C4)C3C2=O)CCCCC1 (centres undefined),0,1,48,.,-1,i,9,0,
O=C(Cc1cn(-c2ccccc2)nc1-c1ccccc1)N1CCCCC1,-4,-2,10,-9,4,i,2,.,
COc1ccc(CNC(=S)Nc2cccc(OC)c2)cc1,-7,1,-3,-18,6,i,4,11,
CCOC12CC(C)(C)CC(C)(CC3=C1C(=O)CC(C)(C)C3)C2 (centres undefined),-11,0,0,.,.,i,-5,11,
O=C(O)c1cccc(-c2nnn(Cc3ccccc3)n2)c1,1,2,-2,-29,-13,i,-6,-7,
O=C1C(=O)N(c2ccccn2)C(c2ccc(Br)cc2)/C1=C(/O)c1ccc(Br)cc1 (centres undefined),1,3,14,-19,8,i,8,13,
Cc1ccc(S(=O)(=O)N2CCCCC2C(=O)N2CCN(Cc3ccccc3)CC2)cc1 (centres undefined),-2,-4,17,-12,-44,i,3,4,
COc1ccc(NC(=S)N(CCc2c(C)[nH]c3ccc(C)cc23)Cc2ccco2)cc1,0,3,-5,-24,-19,i,-2,3,
O=C(c1ccc(NC(=O)C(c2ccccc2)c2ccccc2)cc1)c1ccc(C(=O)O)c(C(=O)O)c1,-2,2,61*,1,-28,i,78*,-2,
Cc1cc(C)cc(C(=O)NCCC(=O)N2CCC3(CC2)NCCc2[nH]cnc23)c1,0,4,-2,-18,-6,i,14,-14,
COc1ccc(Cn2c(=N)c(C(=O)NC3CCCCC3)cc3c(=O)n4ccccc4nc32)cc1,-2,-6,-10,-6,-5,i,-2,5,
Cc1ccc(N2C(=O)NC(NS(=O)(=O)c3ccccc3)(C(F)(F)F)C2=O)cc1 (centres undefined),-3,2,3,-17,0,i,7,8,
O=C(CN(c1ccc(Cl)c(C(F)(F)F)c1)S(=O)(=O)c1ccccc1)N1CCOCC1,-5,-6,5,1,.,i,35,-3,
CSc1nc(N)c(NC(=O)c2ccc(Br)o2)c(=O)[nH]1,-4,5,-3,-20,19,i,-3,1,
Cc1ccc(Cl)cc1N1CCN(C(=O)Cc2cn(C)c3ccccc23)CC1,-9,-10,-8,-18,-77,i,1,52,
CCN(CC)S(=O)(=O)c1cccc(C(=O)Nc2ccc(S(=O)(=O)NC3=NCCCCC3)cc2)c1,-1,-18,.,-20,.,i,.,-8,
O=C(COC(=O)/C=C/c1ccc2ccccc2n1)NNC(=O)c1ccc([N+](=O)[O-])cc1,-4,1,.,-1,-15,.,.,.,
Cc1ccc(N(C)C(=O)N2CCN(S(=O)(=O)c3ccc4ccccc4c3)CC2)cc1,-8,-10,-9,-17,?,i,-10,-7,
O=C(Nc1ccc(S(=O)(=O)NCCc2ccccc2)cc1)c1ccco1,-1,-6,8,.,.,i,-8,.,
Cc1ccc(OC(=O)c2cc(C)nn2C(C)(C)C)cc1,1,1,-8,.,2,i,2,-6,
COc1ccc2ccccc2c1CNC(C)c1ccccc1 (centres undefined),-1,-8,12,-10,17,i,3,5,
CC(C)COc1ccc(C(=O)OCC(=O)N(C)CC(=O)Nc2ccc(F)cc2)cc1,-1,-3,.,-11,3,i,.,11,
Cc1ccc(/C=N/NC(=O)CNC(=O)c2ccc(C)c([N+](=O)[O-])c2)o1,-5,-1,4,.,6,i,1,-8,
O=C1CSC(=S)N1CC1CCCO1 (centres undefined),35*,43*,1,-9,.,i,-2,5,
Cc1cccc(S(=O)(=O)NC(=O)C2(C)CCN2C(=O)Cc2cc(F)ccc2F)c1 (centres undefined),-5,-1,.,-6,-15,.,.,.,
COc1ccc(N=c2scc(-c3ccc(OC)cc3)n2CCO)cc1,2,-20,-7,-9,71*,i,51,13,eIF4H FP inh retest=5;PABP polyA inh retest=10
CCCCN(C)CCn1c(=S)[nH]c2ccc(N3CCOCC3)cc2c1=O,4,5,6,9,-159,i,6,7,
CCCC(=O)N1c2ccccc2C(N(C(C)=O)c2ccccc2)CC1C (centres undefined),7,1,-10,.,.,i,-8,-18,
O=[N+]([O-])c1ccc2c(c1)nnn2-c1ccccc1,1,4,-6,-22,9,i,-7,-21,
CCO[C@H]1OC(C(=O)NCc2nc3ccccc3[nH]2)=C[C@@H](c2ccccc2)[C@@H]1CCCO,1,3,-4,-16,-16,i,-5,-6,
Cc1ccc(Sc2ccc(CO)cc2[N+](=O)[O-])cc1,-2,5,15,.,-20,i,5,43,
COc1cccc(-n2nnc3c(=O)n(CC(=O)N4CCC(C)CC4)cnc32)c1,3,5,-6,3,.,i,-2,-10,
O=C(O)C1OC(Oc2cc3oc(-c4ccccc4)cc(=O)c3c(O)c2O)C(O)C(O)C1O (centres undefined),7,2,9,-14,-64,i,10,-6,
# Further structures
SMILES,MT1-MMP act inh,MT1-MMP act inh RFP,PABP polyA inh,Yeast UUG start,Env fusion inh,Rce1 inhib,eIF4H FP inh,CSC inhib,others
CCC1=NN(C(=O)C(=O)Nc2ccccc2OC)C(O)(C(F)(F)F)C1 (centres undefined),-2,0,9,-20,-26,i,3,-5,
Cn1nc(-c2ccc(Cl)cc2)c2cc(C(=O)N3CCOCC3)sc21,-1,1,9,-18,-28,i,8,-19,
O=C(Nc1ccccc1)N1CCCc2ccccc21,3,8,-13,-2,.,i,5,-2,
COc1ccc(-c2nncnn2)cc1,.,.,-6,.,.,i,4,-16,
CCOC(=O)C1CCCN(c2c(NCC3CCCO3)c(=O)c2=O)C1 (centres undefined),2,6,-4,4,11,i,-4,-8,
CCc1ccc(NC(=S)NC(=O)c2c(-c3ccccc3Cl)noc2C)cc1,-5,-4,7,.,11,i,4,28,
CCC(=O)NC(=S)Nc1ccc(Cl)cn1,4,5,-4,-30,.,i,7,-3,
Cc1ccccc1-n1c(=O)cc(N2CCN(Cc3ccccc3)CC2)[nH]c1=O,4,2,16,-14,3,i,-2,-3,
N#Cc1cccc(NC(=O)CCNS(=O)(=O)c2ccc3[nH]c(=O)oc3c2)c1,-2,3,-11,-19,.,i,3,-1,
COc1ccc(-n2nnnc2SCC#CCO)cc1,-5,-9,-2,-20,-27,i,-7,-13,
Cc1ccc(S(=O)(=O)c2c(C)nn(C(C)(C)C)c2OC(=O)C2CCCC2)cc1,-4,-9,7,1,.,i,41,33,
CC1CC(C)CN(CCOc2ccc(Cl)cc2Cl)C1 (centres undefined),1,1,22,-18,-43,i,8,31,

# Structures above that contain an NH in an aromatic ring, in the order listed:
SMILES,MT1-MMP act inh,MT1-MMP act inh RFP,PABP polyA inh,Yeast UUG start,Env fusion inh,Rce1 inhib,eIF4H FP inh,CSC inhib,others
Cn1c(=O)[nH]c(=O)c2c1nc(NC1CCCCC1)n2Cc1ccccc1,-5,1,4,1,.,i,-2,-11,
COc1ccc(NC(=S)N(CCc2c(C)[nH]c3ccc(C)cc23)Cc2ccco2)cc1,0,3,-5,-24,-19,i,-2,3,
Cc1cc(C)cc(C(=O)NCCC(=O)N2CCC3(CC2)NCCc2[nH]cnc23)c1,0,4,-2,-18,-6,i,14,-14,
CSc1nc(N)c(NC(=O)c2ccc(Br)o2)c(=O)[nH]1,-4,5,-3,-20,19,i,-3,1,
CCCCN(C)CCn1c(=S)[nH]c2ccc(N3CCOCC3)cc2c1=O,4,5,6,9,-159,i,6,7,
CCO[C@H]1OC(C(=O)NCc2nc3ccccc3[nH]2)=C[C@@H](c2ccccc2)[C@@H]1CCCO,1,3,-4,-16,-16,i,-5,-6,
Cc1ccccc1-n1c(=O)cc(N2CCN(Cc3ccccc3)CC2)[nH]c1=O,4,2,16,-14,3,i,-2,-3,
N#Cc1cccc(NC(=O)CCNS(=O)(=O)c2ccc3[nH]c(=O)oc3c2)c1,-2,3,-11,-19,.,i,3,-1,

# Of the compounds above, these contain a tert-butyl group:
SMILES,MT1-MMP act inh,MT1-MMP act inh RFP,PABP polyA inh,Yeast UUG start,Env fusion inh,Rce1 inhib,eIF4H FP inh,CSC inhib,others
Cc1ccc(OC(=O)c2cc(C)nn2C(C)(C)C)cc1,1,1,-8,.,2,i,2,-6,
Cc1ccc(S(=O)(=O)c2c(C)nn(C(C)(C)C)c2OC(=O)C2CCCC2)cc1,-4,-9,7,1,.,i,41,33,

# These rows are one share of the data; rates above refer to the full screens.
